Screens deposited in PubChem by National Center for Advancing Translational Sciences (NCATS).
miR-21 FLuc: raises the signal of a miR-21 reporter; HeLa miR-21 FLuc reporter, luciferase, 48 h; Potency, µM (series often up to 38.3 µM), inactives show at the highest dose reporter change, positive = more light; 340,000 tested, under 10 active; AID 2288; active = well fitted rising curve with a large enough effect; inconclusive = small, poorly fitted or top-dose-only effect; inactive = no such curve, though single readings can be large or run the other way;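 note: % of control where 0% means no effect; miR-21 action dims this reporter so a rising signal means less miR-21 action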
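HeLa cells stably expressing CMV-driven firefly luciferase with a downstream miR-21 binding sequence, endogenously expressing miR-21, were treated with titrations (up to about 40uM final) for 48 hours at 37 degree Celsius. Luciferase luminescence was read after lysis.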
GLA inh pH 4.5: alpha-galactosidase A (human) inhibition, pH 4.5. 230,000 tested, under 10 active. activity change, negative = inhibition, % at 105 µM. purified enzyme, 4-MU-alpha-Gal fluorescence, pH 4.5. P06280; inconclusive = small, poorly fitted or top-dose-only inhibition, or a rising curve; inactive = flat fitted curve, though single readings scatter; no compound was filed as active;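 note: 0% = full activity with enzyme and -100% = basal without enzyme; dose as in the result columns while the protocol names 77 µM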
Target sequence (P06280 whole entry, looked up): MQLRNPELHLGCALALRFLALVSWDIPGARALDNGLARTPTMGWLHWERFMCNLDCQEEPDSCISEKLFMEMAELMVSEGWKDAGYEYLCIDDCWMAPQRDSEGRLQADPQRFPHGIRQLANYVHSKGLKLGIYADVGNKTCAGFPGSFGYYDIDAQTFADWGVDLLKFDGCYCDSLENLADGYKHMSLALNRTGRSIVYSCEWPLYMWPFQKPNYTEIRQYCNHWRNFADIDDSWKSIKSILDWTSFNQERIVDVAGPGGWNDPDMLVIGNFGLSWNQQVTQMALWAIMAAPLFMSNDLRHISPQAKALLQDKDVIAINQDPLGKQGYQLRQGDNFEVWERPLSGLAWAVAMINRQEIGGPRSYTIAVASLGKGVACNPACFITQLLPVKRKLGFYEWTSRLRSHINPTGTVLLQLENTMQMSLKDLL
Rango release inh: inhibitors of RanGTP-induced Rango-importin beta complex dissociation; Potency, µM (series often up to 46.1 µM), for inactives: at the highest dose activity change, negative = inhibition; O95149+P62826; AID 540253; hit rate 0.071% among 340,000; Biochemical FRET Rango-importin beta, RanGTP-induced dissociation; active means falling FRET ratio curve, often poorly fitted, with flat reads before Ran was added; inconclusive means other falling curves, or compound fluorescence or quenching; inactive means flat or rising ratio curve;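 note: potency is the fitted concentration of half-maximal effect; % of control where 0% means no effect; nearly all actives have a fitted effect of over 45% in size; -100% = wells without RanGTP and RCC1; the record marks most hits as doubtful in a second field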
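Rango (0.1 uM)–importin beta (0.25 uM) complex; RanGTP-RCC1 trigger; 45 min RT; CFP/YFP FRET read.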
Rango complex inh: inhibitors of Rango-importin beta complex formation | AID 540263 | Rango CFP/YFP FRET sensor + importin beta, 45 min | Potency, µM (doses to about 92.2 µM), for the others: at the highest dose inhibition of complex formation | hit rate 0.031% among 340,000; active = rising FRET ratio curve, often small or poorly fitted; inconclusive = mostly compound fluorescence or quenching in the first reads; inactive = flat curves in all reads;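 note: potency is the fitted concentration of half-maximal effect; 0% = DMSO wells and 100% = buffer wells lacking importin beta; nearly all actives have a fitted effect of over 15% in size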
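FRET biosensor Rango (snurportin 1 IBB between N-terminal EYFP and C-terminal Cerulean), 50 nM in PBS/1 mM DTT/0.02% Tween-20/0.1% BSA, preincubated 5 min RT with compound; 0.125 microM importin beta added, 45 min RT, CFP/YFP FRET ratio read.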
Active calls of the source: *; u = inconclusive; x = no result given; & = joins results of further samples.

nr	miR-21 FLuc	GLA inh pH 4.5	Rango release inh	Structure	Rango complex inh
1	-3%	-1	16%	CCCN(C(=O)c1cc(S(=O)(=O)N2CCCCC2)ccc1Cl)C1CCS(=O)(=O)C1 (centres undefined)	-0.8%
2	-4%	-1	-3%	Cn1c(NC(=O)c2ccco2)c(-c2ccccc2Cl)c(=O)c2ccccc21	-2.6%
3	-1%	13	-6%	COC(=O)COC(=O)CC(CC(N)=O)c1ccccc1 (centres undefined)	0.9%
4	3%	-8	16%	COc1ccc(C(=O)Oc2cccc3cccnc23)cc1[N+](=O)[O-]	u
5	x	x	-5%	CCOc1ccc(NC(=O)CN(C)C(=O)c2c(-c3ccccc3)noc2C)cc1OCC	4.9%
6	-6%	4	-6%	CC1(C)CC2CC(C)(CN2C(=S)Nc2ccccc2)C1 (centres undefined)	-1.9%
7	2%	7	7%	CCCc1cc(=O)[nH]c(SCC(=O)c2ccc3c(c2)NC(=O)CO3)n1	1.2%
8	-5%	6	0%	O=C1CCC(C(=O)OCc2c(Cl)cccc2Cl)N1 (centres undefined)	0.0%
9	-29%	0	-4%	O=C(NNC1=C(C(=O)C(F)(F)F)CCC1)c1ccc(Cl)cc1	-2.9%
10	2%	x	-10%	O=C(COC(=O)c1ccc(F)c(S(=O)(=O)N2CCOCC2)c1)NCc1ccco1	-0.6%
11	-1%	-24	u	O=C1N/C(=N\S(=O)(=O)Cc2ccccc2)S/C1=C/c1cc([N+](=O)[O-])ccc1O	u
12	0%	x	10%	COc1ccc(CC(=O)NNS(=O)(=O)c2ccccc2[N+](=O)[O-])cc1	3.7%
13	-7%	4	12%	COc1ccc(-c2cc(C(=O)NCCN3CCOCC3)c3ccccc3n2)c(OC)c1	1.3%
14	-4%	x	8%	O=C(CSc1n[nH]c(=O)n1C1CC1)Nc1ccccc1	-1.1%
15	1%	-1	6%	CCCC(=O)N(CCN(C(=O)CCC)c1ccccc1)c1ccccc1	1.3%
16	-8%	5	12%	CSc1ccc(C2CC(=O)Nc3c2c(=O)n(C)c(=O)n3C)cc1 (centres undefined)	0.7%
17	x	x	22%	CCOc1ncccc1C(=O)OCC(=O)NC1CCCCCC1	0.2%
18	-1%	x	-2%	c1ccc2c(c1)CCc1snnc1-2	0.3%
19	-12%	x	0%	CC(C)c1ccc(NC2=CC(=O)CC(C)(C)C2)cc1	-3.1%
20	-4%	-5	-8%	CCc1cc(C(=O)O)c(NC(=O)c2cc(OC)c(OC)c(OC)c2)s1	-1.1%
21	0%	0	1%	COc1cc(C2c3c([nH]c(=O)[nH]c3=O)Nc3ccc4ccccc4c32)ccc1O (centres undefined)	2.7%
22	-1%	-2	9%	CC1CCCCC1N1CCN(C(=O)c2cccc(F)c2)CC1 (centres undefined)	3.3%
23	-1%	x	0%	CCOc1ccc(CNC(=O)CCCN2C(=O)C(c3ccccc3)Oc3cccnc32)cc1 (centres undefined)	-2.2%
24	-27%	12	-10%	Cc1ccc(NC(=O)N/C=C/c2ccc(Cl)cc2)cc1	0.4%
25	-4%&-22%	x	u	CCc1nn(CCCC(=O)NCc2ccc(C)cc2)c(=O)c2cc3occc3n12	u
26	-4%	x	-19%	COCCN(Cc1ccc(C)c(Br)c1)C(=O)Cn1cnc(S(=O)(=O)N2CCCC2)c1	-0.6%
27	-4%	0	25%	Cc1cc(C)cc(OCC(=O)NNC(=O)c2ccoc2C)c1	-1.6%
28	-10%	x	1%	CCC(CC)Nc1ccc(C(CC(N)=O)NC(=O)c2ccccc2)cc1[N+](=O)[O-] (centres undefined)	0.7%
29	-20%	x	5%	OCc1nc2c(ccc3ccccc32)[nH]1	-2.9%
30	-6%	0	8%	CCOC(=O)CC1=C(C(=O)OCC)C(c2cccnc2)C(C#N)=C(N)O1 (centres undefined)	-0.1%
31	-4%	6	-10%	COC(=O)c1ccc(C(=O)OC)c(NC(=O)c2cnc3n(c2=O)CCS3)c1	-4.0%
32	3%	3	-7%	COc1ccccc1/C=C/C=N/NC(=O)CC1C(=O)NN=C1C (centres undefined)	0.3%
33	x	x	2%	O=C(COC(=O)c1cccnc1Cl)NCCc1ccc(F)cc1	-0.8%
34	2%	x	16%	CCOC(=O)C1CCCN(S(=O)(=O)c2ccc(-n3cnnn3)c(C)c2)C1 (centres undefined)	2.7%
35	-3%	5	15%	CSc1ncc(CN2CCN(C3CCCCC3)C(CCO)C2)cn1 (centres undefined)	-1.4%
36	1%	x	-1%	COc1cc(-c2nnc(COC(=O)c3cc(C)no3)o2)cc(OC)c1OC	0.2%
37	x	x	-12%	COc1ccc(OC)c(-c2csc(NC(=O)COC(=O)C3CCC3)n2)c1	3.6%
38	1%	x	-2%	Cc1ccc(S(=O)(=O)NCc2ccccc2)cc1C(=O)NCc1ccccn1	4.8%
39	-9%	0	6%	CC(=O)c1ccc(O)c(CO)c1	-0.7%
40	0%	-2	-13%	O=C(NCN1C(=O)C2C3C=CC(C3)C2C1=O)Nc1ccccc1O (centres undefined)	-5.1%
41	-3%	5	-1%	Nc1nc2n(n1)C(c1ccco1)CC(c1ccccc1)N2 (centres undefined)	0.3%
42	-4%	x	22%	COc1ccc(-c2nonc2NC(=O)c2ccco2)cc1OC	-0.1%
43	1%	x	-26%	COc1cccc(C(C)NC(=O)c2ccncc2)c1 (centres undefined)	1.3%
44	1%	11	1%	CCOc1ccc2[nH]c(C)c(CN3CCN(CC)CC3)c(=O)c2c1	-0.3%
45	0%	x	-14%	COc1ccccc1N1C(=O)c2ccc(C(=O)Nc3ccccc3O)cc2C1=O	-0.2%
46	-21%	x	-10%	O=C(COc1ccc2cc(Br)ccc2c1Br)N1CCOCC1	-1.3%
47	-5%	-2	0%	CCOCCCNc1ncc2c(n1)CC(c1ccc(C)cc1)CC2=O (centres undefined)	1.5%
48	-7%	-1	-1%	CC1CN(c2c3c(nc4ncnn24)CCCC3)CC(C)O1 (centres undefined)	-0.6%

Compounds 44 to 48, quoted:
nr	miR-21 FLuc	GLA inh pH 4.5	Rango release inh	Structure	Rango complex inh
44	1%	11	1%	CCOc1ccc2[nH]c(C)c(CN3CCN(CC)CC3)c(=O)c2c1	-0.3%
45	0%	x	-14%	COc1ccccc1N1C(=O)c2ccc(C(=O)Nc3ccccc3O)cc2C1=O	-0.2%
46	-21%	x	-10%	O=C(COc1ccc2cc(Br)ccc2c1Br)N1CCOCC1	-1.3%
47	-5%	-2	0%	CCOCCCNc1ncc2c(n1)CC(c1ccc(C)cc1)CC2=O (centres undefined)	1.5%
48	-7%	-1	-1%	CC1CN(c2c3c(nc4ncnn24)CCCC3)CC(C)O1 (centres undefined)	-0.6%

Other records follow:
nr	miR-21 FLuc	GLA inh pH 4.5	Rango release inh	Structure	Rango complex inh
49	-29%	5	2%	Cc1ccc(NC(=O)CSc2nnnn2C)cc1S(=O)(=O)N(C)C	-1.6%
50	-54%	9	8%	C(=N\Nc1nc2ccccc2[nH]1)/c1ccccc1	-0.2%
51	-17%	-3	0%	CSc1nc2ccccc2n1Cc1cccc([N+](=O)[O-])c1	0.1%
52	8%	2	-6%	COc1ccc(S(=O)(=O)Nc2ccc3c(c2)n(C)c(=O)n3C)cc1	-0.3%
53	-5%	2	2%	CCC(c1nnc(SCC(=O)Nc2cc(Cl)ccc2C#N)n1C1CCCCC1)N(C)C (centres undefined)	3.1%
54	-3%	-3	6%	C[C@@H](Nc1nc(-c2ccccc2)nc2c1oc1ccccc12)C(=O)O	-4.4%
55	-55%	7	-8%	COC(=O)c1sccc1NC(=O)COc1ccccc1Cl	-0.7%
56	u	-6	4%	CCCc1cc(-c2[nH]ncc2-c2ccc(C(=O)OCC)o2)c(O)cc1O	-0.9%
57	-3%	1	10%	CCOC(=O)c1[nH]c(C)c(C(=O)Nc2ccc(C)c(Cl)c2)c1C	0.7%
58	5%	-7	u	COc1cc(OC)c(OC)cc1/C=C/c1cc(C(=O)O)c2ccccc2n1	u
59	-7%	2	-1%	Cc1noc(C)c1C(=O)NCCC1=CCCCC1	2.0%
60	-2%	x	-6%	O=C(c1ccco1)N1CCc2[nH]nc(-c3ccccc3)c2C1	-5.7%
61	30%	x	-8%	COc1ccc(CCNC(=O)C(C)n2nc(C)c3c(C)n(-c4ccc(C)cc4)nc3c2=O)c(OC)c1 (centres undefined)	-0.6%
62	-7%	4	4%	COc1ccc2[nH]c(=O)c(CN(C)C(=O)COc3ccccc3)cc2c1	1.5%
63	1%	1	u	Clc1ccc(-c2nc3cnccn3c2NC2CCCC2)cc1	u
64	-3%	x	4%	Cc1onc(-c2c(Cl)cccc2Cl)c1C(=O)NCc1ccc(S(N)(=O)=O)cc1	0.4%

Results in GLA inh pH 4.5 and Rango complex inh (three entries from above):
entry	canonical_smiles	GLA inh pH 4.5	Rango complex inh
16	CSc1ccc(C2CC(=O)Nc3c2c(=O)n(C)c(=O)n3C)cc1 (centres undefined)	5	0.7%
6	CC1(C)CC2CC(C)(CN2C(=S)Nc2ccccc2)C1 (centres undefined)	4	-1.9%
26	COCCN(Cc1ccc(C)c(Br)c1)C(=O)Cn1cnc(S(=O)(=O)N2CCCC2)c1	x	-0.6%

(cont.)
nr	miR-21 FLuc	GLA inh pH 4.5	Rango release inh	Structure	Rango complex inh
65	-3%	-12	13%	O=C(O)C1CSC2(c3ccc(F)cc3)CCC(=O)N12 (centres undefined)	-0.2%
66	-3%	-2	-1%	CCOC(=O)c1c(NC(=O)CSc2nnnn2CC)sc(C)c1C	-1.2%
67	8%	-5	-11%	O=C(NC(=S)N1CCN(c2nc(-c3ccccc3)cs2)CC1)c1cncc(Br)c1	3.2%
68	-2%	3	4%	Cc1ccc2c(c1)N(CCC(=O)NCc1ccc3c(c1)OCO3)C(=O)CO2	-5.4%
69	-9%	-3	-22%	COc1ccccc1-c1nc2cc3ccccc3cc2nc1-c1ccccc1	u
70	x	x	-11%	Cc1ccc(NC(=O)c2ccc(OCC3CCCO3)cc2)nc1 (centres undefined)	1.4%
71	4%	-3	-2%	CCOC(=O)/C(=N\Nc1ccc(Br)cc1)N1CCN(c2ccccc2OC)CC1	-0.7%
72	x	x	0%	COc1ccccc1NC(=O)CN(Cc1ccco1)C(=O)c1ccc(N2CCCC2=O)cc1	0.2%
73	x	x	-3%	CCN(C[C@H]1N[C@@](C)(C(=O)OC)[C@H]2C(=O)N(Cc3ccccc3)C(=O)[C@@H]12)S(=O)(=O)c1ccc(F)cc1	-0.4%
74	4%	-11	10%	CCC(CC)C(=O)OCC(=O)Nc1cccc(S(=O)(=O)N(C)c2ccccc2)c1	-0.4%
75	-3%	-3	7%	Cc1nc(NCCNC(=O)c2ccco2)c2c(C)c(C)sc2n1	-1.0%
76	-6%	4	3%	Cc1cccc(NC(=S)NC2CC3CCCC(C2)N3Cc2cccs2)c1 (centres undefined)	2.7%
77	6%	-7	1%	COc1ccccc1-n1c(N)cc(=O)nc1SCC(=O)Nc1cc(C)on1	0.1%
78	-49%	2	16%	O=C(/C=C\c1ccccc1[N+](=O)[O-])Nc1ccccc1	-2.0%
79	2%	7	-2%	O=C(Nc1ccc(N2CCOCC2)cc1)C1CC(=O)N(c2ccc(Cl)cc2)C1 (centres undefined)	-1.8%
80	-10%	-7	38%	CC(=O)c1ccc(OCC(O)CN2CCC(C)CC2)cc1 (centres undefined)	0.4%
81	-12%	x	-15%	COc1ccc(Cl)cc1C(=O)Nc1cccnc1Cl	-1.0%
82	-3%	-9	-11%	CCc1ccc(N2CC(C(=O)OCC(=O)NC3CCS(=O)(=O)C3)CC2=O)cc1 (centres undefined)	5.2%
83	2%	x	u	CCN(CC(=O)NCCc1ccc(S(N)(=O)=O)cc1)Cc1ccccc1	-0.3%
84	-6%	x	9%	COc1ccc(NC(=O)N2CCCC(C(=O)NCc3ccccc3F)C2)cc1 (centres undefined)	-1.9%
85	-1%	-7	-9%	CCOC(=O)c1cccc(NC(=O)CSc2nnc(C3CCCCC3)n2C)c1	2.0%
86	x	x	-16%	CC1CCCC(NC(=O)COC(=O)c2cccs2)C1C (centres undefined)	u
87	-1%	x	-3%	Cc1ccc(NC2CCCN(C(=O)CCN3CCOCC3)C2)cc1C (centres undefined)	0.6%
88	0%	-1	-1%	CCOC(=O)C1=C(C)NC(=O)NC1c1ccc(OC(=O)c2ccco2)cc1 (centres undefined)	2.5%

An excerpt. The share of hits here may be higher or lower than overall.
